RanGTP-Impb inh – inhibitors of RanGTP-importin-beta interaction, primary screen, biochemical, FRET, CFP-Ran, YFP-importin-beta, homogeneous; AID 2216; inhibition, % (no concentration beside the values); 300,000 tested, 1.1% active; cell-free CFP-Ran/YFP-importin-beta FRET ratio;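 active = most replicates above 15%; inconclusive = exactly half above 15%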;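 also: 0% = DMSO wells and 100% = Ran loaded with GDP instead of GTP; wells of about 40 µL received 100 nL stock; the first replicate is given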
MLL AF4-AF9 inh – blocks AF4 peptide binding to human AF9 | P42568 | AlphaScreen, biotin-AF4 peptide binding to FLAG-AF9 | inhibition, % at 10 µM | 350,000 tested, 0.47% active;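 active = every replicate reaching a set inhibition limit, whatever the replicate mean, cut at about 25% in these data; inconclusive = mean inhibition reaches that limit but some replicates miss it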;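 also: 0% = plate neutral control median and 100% = total signal loss; the record names both 10 and 1 µM as test concentration; the first replicate is given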
Target sequence (P42568 whole entry, looked up): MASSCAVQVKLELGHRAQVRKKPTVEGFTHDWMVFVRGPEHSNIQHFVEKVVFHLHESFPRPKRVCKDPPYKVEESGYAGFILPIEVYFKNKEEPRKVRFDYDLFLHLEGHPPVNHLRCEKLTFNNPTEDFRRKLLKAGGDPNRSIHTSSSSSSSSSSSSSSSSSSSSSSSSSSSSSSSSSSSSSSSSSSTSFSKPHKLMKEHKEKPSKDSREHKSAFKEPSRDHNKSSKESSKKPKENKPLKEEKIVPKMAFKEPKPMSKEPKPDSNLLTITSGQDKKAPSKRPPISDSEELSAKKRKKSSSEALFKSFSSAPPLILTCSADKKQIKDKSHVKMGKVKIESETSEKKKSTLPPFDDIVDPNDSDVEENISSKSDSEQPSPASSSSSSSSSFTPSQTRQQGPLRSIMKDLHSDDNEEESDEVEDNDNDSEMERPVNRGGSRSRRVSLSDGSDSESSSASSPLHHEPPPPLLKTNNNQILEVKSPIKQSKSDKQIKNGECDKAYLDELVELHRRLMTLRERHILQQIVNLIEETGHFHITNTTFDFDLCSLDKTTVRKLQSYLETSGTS
FGF22 binding – binders of recombinant human FGF22 by thermal shift | Q9HCT0 | SYPRO orange fluorescence; percent of sucrose octasulfate shift, DMSO zero | calls only at 9.99 µM | 340,000 tested, 1.5% active | AID 651658;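 active = melting point raised past a set limit in the mean and every replicate; inconclusive = no clear call; three in four hits are not shown here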
Target sequence (Q9HCT0 whole entry, looked up): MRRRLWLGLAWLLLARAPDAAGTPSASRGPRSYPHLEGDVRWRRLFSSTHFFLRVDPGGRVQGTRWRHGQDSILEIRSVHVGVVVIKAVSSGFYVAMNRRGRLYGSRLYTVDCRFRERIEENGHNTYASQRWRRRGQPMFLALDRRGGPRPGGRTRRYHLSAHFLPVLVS
Vif A3G – inhibitors of Vif binding to APOBEC3G peptide, primary screen, biochemical, TR-FRET, GST-Vif 1-94, biotin-A3G peptide, dose response retest (AID 1117319). TR-FRET GST-Vif / biotin-A3G peptide binding; higher % means a stronger effect; test concentration not given here; strong numbers were not always called active. inhibition, %, or IC50 in µM where a hit was titrated. 260,000 tested, 0.57% active;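 active = above the screen mean plus three standard deviations and confirmed in dose response; inconclusive = results disagree or hit not tested in dose response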;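 also: Vif residues 1-94 fused to GST binding biotinylated APOBEC3G peptide 110-148; 0% = full assay without inhibitor and 100% = GST in place of GST-Vif; retest series ran down from 100 µM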
UCH37 DUB inh – human UCH37 deubiquitinating enzyme inhibition; 330,000 tested, 0.33% active; purified proteasome/UCH37, Ub-AMC cleavage fluorescence; Q9Y5K5; inhibition, % (concentration not given with the values); AID 588478;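 active = mean of two replicates above 20%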;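 also: 0% = compound-free wells with enzyme and 100% = wells lacking proteasome; stock transfer was 100 nL into about 20 µL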
Target sequence (Q9Y5K5 whole entry, looked up): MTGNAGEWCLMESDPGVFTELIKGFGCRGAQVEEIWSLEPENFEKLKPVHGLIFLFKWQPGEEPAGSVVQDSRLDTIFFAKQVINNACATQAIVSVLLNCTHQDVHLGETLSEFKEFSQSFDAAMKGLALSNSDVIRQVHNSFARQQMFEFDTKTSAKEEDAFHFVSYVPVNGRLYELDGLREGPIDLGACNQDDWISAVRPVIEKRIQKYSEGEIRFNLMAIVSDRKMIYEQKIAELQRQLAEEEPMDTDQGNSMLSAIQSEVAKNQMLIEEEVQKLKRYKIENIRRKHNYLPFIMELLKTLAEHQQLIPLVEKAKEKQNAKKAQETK
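System: Proteasome-associated human UCH37 deubiquitinase; Input: 0.15 nM proteasome in added enzyme buffer; Also added: Ub-AMC substrate from 1 µM stock; Incubation: 30 min compound-proteasome preincubation then 25 min substrate reaction, room temperature; Detection: fluorescence, ex 355 nm, em 460 nm; Read-out: % inhibition of Ub-AMC cleavage fluorescence; Benchmarks: no-proteasome and no-compound wells.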
HNF4A DNA FP – change in binding of human HNF4 alpha to DNA; HNF4a-FITC DNA binding, fluorescence polarization, 1 h; 360,000 tested, 0.3% active; activity change, % at 10 µM; P41235; AID 1224865; in the data active = activity change above about 30%, passing the limit was not always enough;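 also: controls were the assay level and a saturating level of protein; the project sought stronger binding though the title names inhibitors; some compounds called inactive have numbers as strong as hits; positive values seem to mean higher polarization but the record does not say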
Ecoli growth – inhibitors of Escherichia coli growth; 330,000 tested, 0.21% active; OD600, 23 h; hits give low values; AID 1053175; OD600 absorbance (no concentration beside the values);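 active = OD600 absorbance below the run mean of sample wells minus 3.6 SD, in any replicate, cut at about 0.56 in these data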;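 also: stock transfer was 300 nL into about 60 µL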
Starred values were filed as active, the others as inactive. These rows are one share of the data. The share of hits here may be higher or lower than overall.

Screening CCCOc1ccc(C(=O)NNC(=O)CCNC(=O)c2ccco2)cc1OC returned RanGTP-Impb inh 6.6, MLL AF4-AF9 inh -5.1, Vif A3G 4.4%, UCH37 DUB inh 1.2, HNF4A DNA FP -0.3 and Ecoli growth 0.586.
Cc1ccc(S(=O)(=O)N2CCN(C(=O)COC(=O)c3ccc(O)cc3)CC2)c(C)c1 was read as RanGTP-Impb inh 0.1, MLL AF4-AF9 inh -1.0, FGF22 binding inactive, Vif A3G -4.7%, UCH37 DUB inh -4.6, HNF4A DNA FP 1.2 and Ecoli growth 0.662.
For CCOC(=O)C1=C(COC(=O)c2cc(OC)c(OC)c(OC)c2)NC(=O)NC1C (stereo unspecified) the results were RanGTP-Impb inh 1.2, MLL AF4-AF9 inh -29.1, FGF22 binding inactive, Vif A3G 2.1%, UCH37 DUB inh -0.3, HNF4A DNA FP 1.6 and Ecoli growth 0.682.
`CC1=NNC(=O)C1CCC(=O)N/N=C/c1ccccc1` (stereo unspecified) gave RanGTP-Impb inh 0.4, FGF22 binding inactive, Vif A3G inconclusive and HNF4A DNA FP 1.6.
CCSc1ccccc1C(=O)Nc1cc(OC)c(OC)c(OC)c1 was read as RanGTP-Impb inh inconclusive, MLL AF4-AF9 inh -3.8, FGF22 binding inactive, Vif A3G -11.1%, UCH37 DUB inh -2.9, HNF4A DNA FP 2.8 and Ecoli growth 0.707.
Cc1cc(N2CCN(C(C(=O)NC3CCCC3)c3ccc(-c4ccccc4)cc3)CC2)c2ccccc2n1 (stereo unspecified) was read as MLL AF4-AF9 inh 4.0, FGF22 binding inactive and HNF4A DNA FP 1.4.
`O=C(NCc1n[nH]c(=S)n1Cc1ccccc1)c1ccc(Cl)cc1Cl` gave RanGTP-Impb inh 2.4, MLL AF4-AF9 inh -4.3, FGF22 binding inactive, Vif A3G -5.0%, UCH37 DUB inh 0.5, HNF4A DNA FP 1.2 and Ecoli growth 0.673.
`CCC1Oc2ccc(C)cc2N(CC(=O)N2CCN(c3ccc(F)cc3)CC2)C1=O` (stereo unspecified) gave RanGTP-Impb inh 2.9, Vif A3G 19.0%, UCH37 DUB inh 3.8, HNF4A DNA FP -1.2 and Ecoli growth 0.744.
Screening COc1ccc(C)cc1N1CC(C(=O)OCc2nc(N)nc(Nc3ccccc3C)n2)CC1=O (stereo unspecified) returned MLL AF4-AF9 inh 1.6, FGF22 binding inactive, Vif A3G 0.9%, UCH37 DUB inh 1.9, HNF4A DNA FP 2.6 and Ecoli growth 0.658.
Screening Cc1ccccc1NC(=O)Nc1ccccn1 returned RanGTP-Impb inh 0.9, MLL AF4-AF9 inh -1.7, FGF22 binding inactive, UCH37 DUB inh 5.6, HNF4A DNA FP 1.0 and Ecoli growth 0.704.
For CC1(C(=O)Nc2ccc(Cl)c(Cl)c2)CCN1C(=O)Cc1cccc2ccccc12 (stereo unspecified) the results were MLL AF4-AF9 inh -3.2, FGF22 binding inactive and HNF4A DNA FP -3.4.
For CC1=C(C#N)C(=O)NC1(C)O (stereo unspecified) the results were MLL AF4-AF9 inh 5.3, Vif A3G 7.3% and HNF4A DNA FP -1.7.
CCC(Sc1nc2ccsc2c(=O)n1Cc1ccc(C(=O)O)cc1)C(=O)Nc1ccc(Cl)cc1 (stereo unspecified) was read as MLL AF4-AF9 inh 1.4, FGF22 binding inactive, Vif A3G -4.6% and HNF4A DNA FP 3.0.
For COCc1c(C(=O)N2CCN(c3ncccn3)CC2)oc2ccccc12 the results were MLL AF4-AF9 inh 2.3, FGF22 binding inactive, Vif A3G -6.7%, UCH37 DUB inh -0.3, HNF4A DNA FP -2.3 and Ecoli growth 0.723.
`O=C(Cc1ccccc1F)OCC(=O)N1CCc2ccccc21` gave RanGTP-Impb inh -2.1, MLL AF4-AF9 inh -1.0, FGF22 binding inactive, Vif A3G -3.5%, UCH37 DUB inh 2.5, HNF4A DNA FP 0.3 and Ecoli growth 0.649.
For CCN(CC1CCCO1)C(=O)CCc1nnc(CCc2ccc(OC)cc2)o1 (stereo unspecified) the results were RanGTP-Impb inh 0.2, MLL AF4-AF9 inh -0.6, FGF22 binding inactive, Vif A3G -5.0%, UCH37 DUB inh 5.3, HNF4A DNA FP -1.5 and Ecoli growth 0.681.
Screening CC(C)c1ccc(OCC(=O)NC(C)c2ccccc2)cc1 (stereo unspecified) returned RanGTP-Impb inh -1.0, MLL AF4-AF9 inh -5.9, FGF22 binding inactive, UCH37 DUB inh 0.5, HNF4A DNA FP 0.9 and Ecoli growth 0.61.
For CCN1CCN(c2ccc(S(=O)(=O)N3CCCCC3)cc2NC(=O)/C=C/c2ccc([N+](=O)[O-])cc2)CC1 the results were RanGTP-Impb inh 1.5, MLL AF4-AF9 inh 14.1, FGF22 binding inactive, Vif A3G -0.3%, UCH37 DUB inh 5.3, HNF4A DNA FP 0.4 and Ecoli growth 0.646.
N#Cc1ccc(C(=O)Nc2nc(SCc3ccc(Cl)cc3)n[nH]2)cc1 was read as RanGTP-Impb inh -2.1, MLL AF4-AF9 inh -1.1, FGF22 binding inactive, Vif A3G inconclusive, UCH37 DUB inh -0.2, HNF4A DNA FP 0.7 and Ecoli growth 0.702.
Screening COc1ccc(-c2nnc(SCC(=O)N3CCCC3)o2)c(OC)c1 returned RanGTP-Impb inh 3.2, MLL AF4-AF9 inh -2.2, FGF22 binding inactive, UCH37 DUB inh 3.0, HNF4A DNA FP 1.6 and Ecoli growth 0.683.
COc1cc(S(=O)(=O)NCCc2ccc3c(c2)OCO3)ccc1-n1cnnn1 was read as RanGTP-Impb inh -4.6, Vif A3G 19.6%, UCH37 DUB inh 3.9, HNF4A DNA FP 2.2 and Ecoli growth 0.647.
Screening Cc1cc2c(c(CO)c1CCO)C(=O)[C@@H](C)[C@@H]2O returned MLL AF4-AF9 inh -1.9, FGF22 binding inactive, UCH37 DUB inh 0.4 and HNF4A DNA FP -8.8.
`CCC(CC)c1nc(C(N)=O)c2[nH]c(=O)n(-c3ccc(OC)c(OC)c3)c2n1` gave RanGTP-Impb inh 1.5, MLL AF4-AF9 inh -2.8, FGF22 binding inactive, Vif A3G -3.5%, UCH37 DUB inh 7.8, HNF4A DNA FP 0.3 and Ecoli growth 0.62.
`Cc1ccc(OCc2cnc(Cl)s2)c(C)c1` gave RanGTP-Impb inh 1.7, MLL AF4-AF9 inh 2.8, FGF22 binding inactive, Vif A3G 4.1%, UCH37 DUB inh 3.6, HNF4A DNA FP 2.9 and Ecoli growth 0.676.
Cc1cc(NC(=O)OC2CCCCC2)ccc1[N+](=O)[O-] was read as RanGTP-Impb inh -2.9, MLL AF4-AF9 inh -4.3, FGF22 binding inactive, UCH37 DUB inh 1.2, HNF4A DNA FP -1.3 and Ecoli growth 0.679.
For Cc1ccccc1OCC(=O)NCCC1=CCCCC1 the results were RanGTP-Impb inh 1.1, Vif A3G 12.6% and HNF4A DNA FP 4.4.
NC(=O)C1CCCN(CC(=O)Nc2cc(S(=O)(=O)N3CCOCC3)ccc2N2CCCC2)C1 (stereo unspecified) was read as MLL AF4-AF9 inh 0.2, FGF22 binding inactive, Vif A3G -2.8%, UCH37 DUB inh 3.6, HNF4A DNA FP 0.8 and Ecoli growth 0.668.
Screening Oc1ccc(C[C@@H]2CNCCN2CCCCC2CCCCC2)cc1 returned RanGTP-Impb inh -4.7, MLL AF4-AF9 inh -66.3, FGF22 binding inactive, UCH37 DUB inh -1.5 and HNF4A DNA FP 0.8.
Screening Cn1c(SCC(=O)Nc2nccs2)nnc1-c1ccc(S(=O)(=O)N2CCCC2)cc1 returned RanGTP-Impb inh 1.6, Vif A3G 2.4%, UCH37 DUB inh 7.3, HNF4A DNA FP -1.5 and Ecoli growth 0.726.
`CCC(C)N(C)C1CCN(C(=S)Nc2cccc(OC)c2)CC1` (stereo unspecified) gave RanGTP-Impb inh 0.5, MLL AF4-AF9 inh -0.8, FGF22 binding inactive, Vif A3G -2.0%, UCH37 DUB inh 3.7, HNF4A DNA FP 4.2 and Ecoli growth 0.688.
Cc1cccc(OCc2nc3c4c(ncn3n2)-c2ccccc2CC42CCCC2)c1 was read as RanGTP-Impb inh 2.3, MLL AF4-AF9 inh -4.2, FGF22 binding inactive, UCH37 DUB inh -5.6, HNF4A DNA FP 2.7 and Ecoli growth 0.703.
For CC(NC(=O)c1ccc(Cl)s1)C1CCCO1 (stereo unspecified) the results were RanGTP-Impb inh -0.5, Vif A3G 1.0%, UCH37 DUB inh 1.7, HNF4A DNA FP -0.1 and Ecoli growth 0.736.
For O=S(=O)(c1cc(C(F)(F)F)ccc1Cl)N1CCN(c2ncnc3ccccc23)CC1 the results were MLL AF4-AF9 inh 1.5, FGF22 binding inactive, Vif A3G 3.0%, UCH37 DUB inh -0.5, HNF4A DNA FP -3.3 and Ecoli growth 0.682.
`CCCn1ccc2c(OCC(=O)Nc3ccc(NC(C)=O)cc3)cccc2c1=O` gave RanGTP-Impb inh 1.2, MLL AF4-AF9 inh -2.7, FGF22 binding inactive, Vif A3G -0.4%, UCH37 DUB inh -3.8, HNF4A DNA FP -2.9 and Ecoli growth 0.641.
Screening Cc1[nH]c2ccccc2c1/C=C/c1nc2ccccc2c(=O)n1-c1cccc([N+](=O)[O-])c1 returned RanGTP-Impb inh 8.1, UCH37 DUB inh 6.3, HNF4A DNA FP 1.8 and Ecoli growth 0.716.
`COc1ccccc1Oc1nc(-c2cccnc2)nc2ccccc12` gave RanGTP-Impb inh -1.6, MLL AF4-AF9 inh -0.7, Vif A3G -3.7%, UCH37 DUB inh -2.7, HNF4A DNA FP 3.2 and Ecoli growth 0.689.
Screening O=[N+]([O-])c1cc(S(=O)(=O)N2CCCC2)ccc1N/N=C1/CCCc2ccccc21 returned RanGTP-Impb inh -5.4, MLL AF4-AF9 inh 3.9, FGF22 binding inactive, Vif A3G 0.8% and HNF4A DNA FP 0.0.
Screening COc1cccc(NC(=O)CSc2nc3ccccc3c(=O)n2Cc2cccs2)c1 returned RanGTP-Impb inh 4.3, Vif A3G 1.0%, UCH37 DUB inh 2.4, HNF4A DNA FP -0.2 and Ecoli growth 0.715.
O=C(O)C1CCCCC1C(=O)Nc1nccs1 (stereo unspecified) was read as RanGTP-Impb inh 1.7, Vif A3G 2.7%, UCH37 DUB inh 2.3, HNF4A DNA FP -3.0 and Ecoli growth 0.645.
`CCN(CC)S(=O)(=O)c1cc(NC(=O)Cn2cnc3ccccc3c2=O)ccc1C` gave RanGTP-Impb inh 2.6, Vif A3G inconclusive, UCH37 DUB inh 3.0, HNF4A DNA FP 2.8 and Ecoli growth 0.644.
`CSc1cc(-c2ccc(Cl)cc2)c(C(=O)NC(C)C)s1` gave RanGTP-Impb inh 0.3, Vif A3G 1.1%, UCH37 DUB inh 4.8, HNF4A DNA FP 1.8 and Ecoli growth 0.742.
For CCOc1ccccc1Nc1cc(C)nc2ccc(C)cc12 the results were RanGTP-Impb inh 3.6, MLL AF4-AF9 inh -0.8, FGF22 binding inactive, UCH37 DUB inh 8.8, HNF4A DNA FP 2.4 and Ecoli growth 0.648.
Screening O=C(O)CCN1C(=O)C2C3C=CC(C2C1=O)C1C(=O)N(CCC(=O)O)C(=O)C31 (stereo unspecified) returned RanGTP-Impb inh -1.9, MLL AF4-AF9 inh 0.6, FGF22 binding inactive, Vif A3G 1.4%, UCH37 DUB inh 2.6, HNF4A DNA FP -0.1 and Ecoli growth 0.63.
`Cc1ccc2c(CN3CCCc4ccccc43)cc(=O)oc2c1C` gave RanGTP-Impb inh -13.1, Vif A3G 4.7%, UCH37 DUB inh 4.8, HNF4A DNA FP 17.6 and Ecoli growth 0.7.

Compound activity deposited in PubChem BioAssay by several laboratories.
